# Screening results: PubChem, National Center for Advancing Translational Sciences (NCATS)
# RE007 growth inh – less growth of the S. pombe RE007 Vpr strain; AID 651644; 0.21% of 360,000 active; Potency, µM (top dose mostly 92.2 µM), for the others: top-dose activity change, negative = less growth; S. pombe RE007 Vpr strain, BacTiter-Glo ATP luminescence, 24 h; control for the full effect not named in the record; active = well fitted falling curve with a large enough effect; inconclusive = small, poorly fitted or top-dose-only effect; inactive = no such curve, though single readings can be large or run the other way;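 further: on the % scale 0 is the no-effect control and ±100 the full control effect; nearly all actives have a fitted effect of over 50% in size; the assay follows cell death caused by Vpr and the record does not say whether a fall means rescue or toxicity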
#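 Fission yeast RE007 carrying one integrated HIV-1 vpr copy, seeded at OD 0.01 in PMG+AL medium with 23 nL pinned compound. Grown 24 h at 30 degrees; viability read by BacTiter-Glo luminescence after 5 min.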
# StopGo reporter – lowers the luciferase signal of an FMDV 2A StopGo reporter | human cells with a luciferase reporter of 2A StopGo recoding; control for the full effect not named in the record | 1.2% of 410,000 active | Potency, µM (doses to about 57.9 µM), for inactives: at the highest dose signal change, negative = less light; active = well fitted falling curve with a large enough effect; inconclusive = small, poorly fitted or top-dose-only effect; inactive = no such curve, though single readings can be large or run the other way; tested in HEK293T cells; further: on the % scale 0 is the no-effect control and ±100 the full control effect; nearly all actives have a fitted effect of over 45% in size; luciferase light after 4 h
# SARS PLP yeast – blocks SARS-CoV papain-like protease in a yeast assay | S. cerevisiae expressing SARS-CoV PLpro, growth rescue; control for the full effect not named in the record | Potency, µM (series often up to 32.9 µM), for inactives: at the top dose activity, positive = growth rescue | 0.19% of 330,000 active | AID 485353; active means well fitted rising curve with a large enough effect; inconclusive means small, poorly fitted or top-dose-only effect; inactive means no such curve, though single readings can be large or run the other way; further: 0% is about no effect; nearly all actives have a fitted effect of over 55% in size; growth read by luminescence after 48 h
# * hit, by the source's call; ? = inconclusive; [ ] = dose if it differs, or a comment. Potency means the concentration at half of the fitted maximal effect. The list is partial; the hit share may differ from the screen's.
structure | RE007 growth inh | StopGo reporter | SARS PLP yeast
O=C(Cc1ccc(Cl)cc1)c1c[nH]c(C(=O)NCCCn2ccnc2)c1 | -15% | -20% | -1%
COc1ccc(OCCCC(=O)ON=C(N)c2ccccc2Cl)cc1 | -1% | 5% | 7%
CCOc1ccc(NC(=O)CN(C)C(=O)CC2CCCCC2)cc1OCC | 4% | -11% | -7%
O=C(C[C@H]1C/C=C\C[C@@H](Cc2ccc(F)cc2)C(=O)O[C@H](c2ccccc2)CNC1=O)N[C@@H](CO)Cc1ccccc1 | 11% | -22% | -44%
NCc1cccc(CNc2ccc([N+](=O)[O-])cc2C(N)=O)c1 | -8% | 49%[activator] | 5%
C[C@H](CO)N1C[C@H](C)[C@@H](CN(C)C(=O)Nc2ccc3c(c2)OCO3)Oc2ccc(NC(=O)C3CCCCC3)cc2C1=O | -4% | -6% | 7%
COC(=O)C1=C(c2ccc(C(C)=O)cc2)C[C@@H]2CC[C@H]1N2C(=O)NC1CCCCC1 | 5% | -5% | 1%
CN(C)C(=O)c1ccc(NC(=O)COC(=O)c2cc3c(s2)CCCCC3)cc1 | 7% | -10% | -2%
O=Cc1cn(-c2ccccc2)nc1-c1ccncc1 | 13% | -3% | -2%
CN1CCN(CC#CCC2(O)c3ccccc3-c3ccccc32)CC1 | 7% | -8% | 0%
Cc1ccccc1CN1CCN(C(C)C(=O)NNC(=O)c2ccc(F)cc2)CC1 (stereo not drawn) | -5% | 13% | -2%
CCOc1ccc(S(=O)(=O)NN=C(C)c2cccnc2)cc1 | 1% | 34%[activator] | 1%
CC(O)[C@H]1CNCCN1CCc1cc(C(F)(F)F)cc(C(F)(F)F)c1 (stereo partly drawn) | 25% | 0% | 0%
Cc1ccc2nc(SCC(=O)Nc3oc(C)c4c(C)n[nH]c(=O)c34)[nH]c2c1 | 5% | -4% | -10%
CCc1noc(C)c1C(=O)NNC(=O)c1ccc(N(CC)CC)cc1 | -3% | -19% | -1%
NC(=S)Nc1cccc2[nH]ccc12 | -16% | 5% | 1%
CC(=O)Nc1ccc(S(=O)(=O)N2CCCC3CCCCC32)cc1 (stereo not drawn) | 4% | -7% | -4%
COc1ccccc1NS(=O)(=O)c1ccc(C(=O)Nc2ncccc2O)cc1 | -3% | -16% | -3%
COc1ccc(NC(=O)Nc2cccc3c2O[C@H](CN(C)S(=O)(=O)c2ccc(F)cc2)[C@@H](C)CN([C@H](C)CO)C3=O)cc1 | -6% | -3% | -2%
CCCCCCCCC(NC(=O)c1ccc(C#N)cc1)C(=O)NCCC (stereo not drawn) | 9% | -7% | -1%

# Shown with two lines to a compound: 13 of the compounds above.
# Under each structure – RE007 growth inh	StopGo reporter	SARS PLP yeast
> NCc1cccc(CNc2ccc([N+](=O)[O-])cc2C(N)=O)c1
  -8%	49%[activator]	5%
> C[C@H](CO)N1C[C@H](C)[C@@H](CN(C)C(=O)Nc2ccc3c(c2)OCO3)Oc2ccc(NC(=O)C3CCCCC3)cc2C1=O
  -4%	-6%	7%
> COC(=O)C1=C(c2ccc(C(C)=O)cc2)C[C@@H]2CC[C@H]1N2C(=O)NC1CCCCC1
  5%	-5%	1%
> CN(C)C(=O)c1ccc(NC(=O)COC(=O)c2cc3c(s2)CCCCC3)cc1
  7%	-10%	-2%
> O=Cc1cn(-c2ccccc2)nc1-c1ccncc1
  13%	-3%	-2%
> CN1CCN(CC#CCC2(O)c3ccccc3-c3ccccc32)CC1
  7%	-8%	0%
> Cc1ccccc1CN1CCN(C(C)C(=O)NNC(=O)c2ccc(F)cc2)CC1 (stereo not drawn)
  -5%	13%	-2%
> CCOc1ccc(S(=O)(=O)NN=C(C)c2cccnc2)cc1
  1%	34%[activator]	1%
> CC(O)[C@H]1CNCCN1CCc1cc(C(F)(F)F)cc(C(F)(F)F)c1 (stereo partly drawn)
  25%	0%	0%
> Cc1ccc2nc(SCC(=O)Nc3oc(C)c4c(C)n[nH]c(=O)c34)[nH]c2c1
  5%	-4%	-10%
> CCc1noc(C)c1C(=O)NNC(=O)c1ccc(N(CC)CC)cc1
  -3%	-19%	-1%
> NC(=S)Nc1cccc2[nH]ccc12
  -16%	5%	1%
> CC(=O)Nc1ccc(S(=O)(=O)N2CCCC3CCCCC32)cc1 (stereo not drawn)
  4%	-7%	-4%

# The results go on.
structure | RE007 growth inh | StopGo reporter | SARS PLP yeast
Cc1ccc2nc(-c3ccccc3)c(CN3CCN(c4ccccc4F)CC3)n2c1 | 0% | ? | 0%
CCN(CC(=O)Nc1ccc(OC(F)F)cc1)C1CCCCC1 | -8% | -9% | -1%
CC(=O)c1ccc(OCC(=O)NCc2ccc(F)cc2)cc1 | 4% | -7% | -1%
C[N+](C)(C)C[C@H](O)CC(=O)[O-] | -7% | -21% | -8%
CC(=O)N1c2ccc(F)c(F)c2C[C@H]1C | -6% | -1% | -19%
COC(=O)C1=C(c2ccc(OC(F)(F)F)cc2)C[C@@H]2CC[C@H]1N2C(=O)NCCO | -11% | -12% | 1%
Cc1noc(C)c1NC(=O)Nc1cccc2c1O[C@H](CN(C)C(=O)Nc1ccc3c(c1)OCO3)[C@@H](C)CN([C@H](C)CO)C2=O | 34% | -9% | -2%
CCOC(=O)N/N=C/c1ccc(OC)c(O)c1 | -21% | 61%[activator] | 1%
O=C(OCc1c(-c2ccccc2)ncc2ccccc12)c1ccccc1C(F)(F)F | -8% | -10% | -8%
COc1ccc(CNC(=O)C[C@H]2C[C@H](C(=O)N(C(C)C)C(C)C)[C@@]3(C)c4[nH]c5ccc(Cl)cc5c4CCN3C2=O)cc1OC | 9% | ? | -15%
CC(NC(=O)c1ccccc1F)c1cccc2ccccc12 (stereo not drawn) | -9% | 3% | -8%
COc1ccc(NC(=O)Cc2ccsc2)cc1S(=O)(=O)N1CCOCC1 | 9% | 5% | 0%
CCOC(=O)CCCCCC(=O)Nc1ccc2c(c1)CC(=O)N([C@@H](C)CO)C[C@@H](C)[C@@H](CN(C)C(=O)Nc1ccc(C(F)(F)F)cc1)O2 | -1% | 13% | -3%
CCc1onc(C)c1C(=O)Nc1ccc(N2CCOCC2)cc1 | 7% | 11% | 9%
COc1ccc(CN(C)C(=O)CCl)cc1 | -1% | ? | -1%
CCC1Nc2ncnc(N3CCOCC3)c2N(Cc2ccc(OC)cc2)C1=O (stereo not drawn) | 5% | 4% | -3%
CC(=O)Nc1ccc(S(=O)(=O)NCC(=O)OCC(=O)Nc2sccc2C(N)=O)cc1 | 14% | -7% | 13%
COc1ccc(NC(=O)CSCC(=O)N(C)CC(=O)Nc2c(C)cccc2C)cc1 | 3% | 1% | 4%
CCCSc1ccc([C@@H]2[C@H]3C(=O)N(CC)C(=O)[C@H]3[C@]3(C(=O)OC)CCCN23)cc1 | 8% | -14% | 0%
CNC[C@H]1Oc2c(NS(=O)(=O)c3ccccc3)cccc2C(=O)N([C@H](C)CO)C[C@@H]1C | 14% | 7% | 10µM*
Cc1ccc(S(=O)(=O)N(C)C[C@@H]2Oc3ccc(NS(C)(=O)=O)cc3CC(=O)N([C@H](C)CO)C[C@@H]2C)cc1 | 26% | -17% | -1%
O=C(COc1ccccc1)NN1C(=O)CSC1=S | -6% | -13% | 1%
O=C(NC1CC1)c1sc2cc(F)ccc2c1Cl | ? | 41%[activator] | -6%
O=C(NCc1ccco1)c1cc(-c2ccccc2)nn1CC1CC(c2cccc([N+](=O)[O-])c2)=NO1 (stereo not drawn) | -7% | -11% | -3%
O=C(Cn1[nH]c(=O)c2ccccc2c1=O)NCC1COc2ccccc2O1 (stereo not drawn) | 12% | -1% | 6%
CC1CCCCC12NC(=O)N(CC(=O)NCC(=O)Nc1ccc(F)c(F)c1F)C2=O (stereo not drawn) | 0% | -13% | 1%
Cc1cc(-c2csc(NC(=O)c3ccc(=O)[nH]c3)n2)c(C)n1Cc1ccccc1 | 8% | ? | -2%
Cc1cc(C)c(CN2CCN(C(=O)Cn3cnc4c(NCc5ccccc5)ncnc43)CC2)c(C)c1 | 1% | 8.9µM* | 1%
O=C(OCCc1cc2ccccc2c(=O)o1)c1ccc(C(F)(F)F)cc1 | 1% | -12% | -28%
O=C(COC(=O)/C=C/c1cccc(C(F)(F)F)c1)NC1CCCCCC1 | -5% | -29% | 2%
COc1ccc(C2=NOC(Cn3nc(C(=O)NCc4ccc(OC(F)(F)F)cc4)cc3-c3ccccc3)C2)cc1 (stereo not drawn) | 3% | 0% | 7%
Cc1ccc(NC(=O)C2CCN(C(=O)OC(C)(C)C)CC2)cc1S(=O)(=O)N1CCCCC1 | -1% | ? | 2%
COc1cc(OC)cc(-c2c(-c3cccs3)c3cc(-c4ccc(SC)cc4)ccc3n2C)c1 | -14% | -14% | 1%
CC1(C(=O)OCC(=O)Nc2ccc(Cl)cn2)CC1(Cl)Cl (stereo not drawn) | 4% | 18% | -10%
S=C(NCC1CCCO1)N1CCN(Cc2ccccc2Cl)CC1 (stereo not drawn) | -4% | 17% | -1%
CC(C)N(Cc1ccccc1)C(=O)COC(=O)c1ccc2ncsc2c1 | 13% | 1% | 1%
O=C(CCC(=O)N1C[C@H]2C[C@@H](C1)c1cccc(=O)n1C2)NCc1ccc(F)cc1 | 5% | -25% | 0%
C#CCOCCOCCOCCNc1nc(N2CCN(C(=O)Cn3cc(CCCCN)nn3)CC2)nc(N2CCN(C(=O)[C@H](CCCCN)n3cc(CCC(=O)O)nn3)CC2)n1 | -5% | -7% | 2%
O=C(OC1CC2CCC(N2)C1C(=O)O)c1ccccc1 (stereo not drawn) | 3% | -19% | 23%
C=CCn1c(SCC(=O)c2ccc(O)c(O)c2)nnc1-c1cccc(Cl)c1 | 1% | -27% | 1%
Nc1c(N(Cc2ccco2)C(=O)c2ccc(Br)cc2)c(=O)[nH]c(=O)n1Cc1ccccc1 | 3% | 14% | -5%
CN(C)C(=O)CCc1ccc2c3c([nH]c2c1)[C@]1(C)[C@@H](C(=O)N2CCOCC2)C[C@H](CC(=O)NCc2cccc(C(F)(F)F)c2)C(=O)N1CC3 | -4% | -5% | -4%
O=C(OCC(=O)N1CCc2ccccc2C1)c1ccc(Cl)c([N+](=O)[O-])c1 | -24% | -19% | 4%
Nc1nc(COC(=O)C2CC(=O)N(Cc3ccccc3Cl)C2)nc(Nc2ccccc2)n1 (stereo not drawn) | -21% | -4% | -1%[6.58 µM]
COc1ccc(C(=O)NCC(=O)OCC(=O)c2c(C)[nH]c3ccccc23)cc1OC | 10% | -1% | 3%
CC(=O)c1c(C)nc(-c2ccc(OCC(=O)Nc3ccccc3)cc2)n1O | -2% | -5% | -1%
CC(Sc1nnc(-c2ccco2)n1C)C(=O)NC1CCCC1 (stereo not drawn) | 6% | -12% | 0%
CC[C@]12c3[nH]c4cc(-c5ccco5)ccc4c3CCN1C(=O)[C@@H](CC(=O)NCCc1ccccn1)C[C@@H]2C(=O)N1CCN(C(=O)c2ccco2)CC1 | -10% | -26% | -4%
COc1cccc(C(=O)Nc2ccccc2N2CCN(C(=O)c3ccccc3)CC2)c1 | -5% | -18% | -5%
CC1(C)CC(=O)C=C(NC2CCCC(O)C2)C1 (stereo not drawn) | 5% | -5% | -4%
Cc1ccc(S(=O)(=O)NCCC(=O)NC2CCC(C)CC2)cc1 (stereo not drawn) | 0% | -4% | 17%
NC(=O)COc1ccc(C23CC4CC(CC(C4)C2)C3)cc1 | 3% | 50%[activator] | -1%
CCCc1cc(=O)[nH]c(SCC(=O)Nc2ccc(OCc3ccccc3)cc2)n1 | 6% | 10% | 3%
c1cc2c(cc1[C@H]1OCC3C1CO[C@@H]3c1ccc3c(c1)OCO3)OCO2 (stereo partly drawn) | 5% | -5% | -6%
CCN(CC(=O)Nc1cc(Cl)ccc1C)C(=O)CCc1nc2ccccc2c(=O)[nH]1 | -12% | -15% | -2%
Nc1ncnc2c1ncn2[C@@H]1O[C@H](CNS(=O)(=O)CCCCl)[C@@H](O)[C@H]1O | -5% | -7% | 0%
COc1ccc(NC(=O)Nc2ccc3c(c2)C(=O)N([C@H](C)CO)C[C@H](C)[C@@H](CN(C)C(=O)NC(C)C)O3)cc1 | 10% | -8% | 2%
Cc1ccccc1-c1nn(-c2ccccc2)cc1C(=O)NCC(c1ccco1)N1CCCC1 (stereo not drawn) | 10% | -17% | -8%
COc1cc(C(=O)NCCC2=CCCCC2)ccc1OCc1c(C)noc1C | 14% | -23% | 0%
Cn1c(COc2ccc(Cl)cc2)nnc1SCC(=O)NC1CC1 | -2% | -18% | -3%
COc1ccc(-c2cc(C(=O)N3CCN(c4ncccn4)CC3)c3ccccc3n2)cc1OC | 16% | -19% | 7%
